# Source: PubChem BioAssay (Broad Institute)
# BJeLR viab HTS = compounds reducing viability of BJeLR cells; viability loss activity score, % (no concentration beside the values); BJeLR fibroblasts viability, CellTiterGlo ATP luminescence, 48 h; HRASV12, hTERT and SV40 LT/ST transformed; 30,000 compounds, 0.64% hits; AID 2275; in the data active means viability loss activity score above about 50%; about a fifth of its hits are not listed in these tables;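 further: higher score means fewer live cells and less ATP luminescence; stock transfer was 50 or 100 nL into about 30 µL; 0% = vehicle wells and 100% = a reference killing control; one replicate is shown; the record names a cut of 85%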
# A1 inhib = blocks A1 activity. MEF A1-2A-BIM cells, caspase-Glo luminescence, 3 h; percent of clofoctol signal, DMSO as zero. caspase activation, % (test concentration not listed). 21,000 compounds, 0.51% hits. AID 2241;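 active means most replicate scores above 10, or exactly half above 10 with mean activity above 10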;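 further: effector caspase 3 and 7 activity cleaving a DEVD luciferin substrate; 50 nL library stock added to about 30 µL; numbers are from one replicate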
# Starred values were filed as active, the others as inactive; x = not tested or not shown.
# The line under a structure holds: BJeLR viab HTS | A1 inhib
> Cc1noc(C)c1NC(=O)Nc1ccc2c(c1)C(=O)N([C@H](C)CO)C[C@H](C)[C@H](CN(C)S(=O)(=O)c1cccs1)O2
    -1.3 | 0.2
> C[C@H]1CN([C@@H](C)CO)C(=O)c2cc(NC(=O)C3CC3)ccc2O[C@H]1CN(C)S(=O)(=O)c1cccs1
    5.3 | -0.7
> CC(C)(C)c1ccc(OCc2ncc(S(=O)(=O)c3ccccc3)c(N)n2)cc1
    4.1 | 0.4
> CCN(Cc1ccccc1)C(=O)C(C)Oc1ccccc1 (stereo not given)
    6.9 | 0.2
> Cc1cc(C2(O)CSc3nc4cc(C(F)(F)F)ccc4n32)ccc1Cl (stereo not given)
    0.9 | -0.5
> Cc1noc(C)c1S(=O)(=O)Nc1cccc2c1O[C@@H](CN(C)Cc1ccncc1)[C@@H](C)CN([C@@H](C)CO)C2=O
    -1.2 | x
> CCOC(=O)c1ccc(NC2CCCc3c2n(C)c2ccc(C)cc32)cc1 (stereo not given)
    0.1 | x
> C[C@H]1CN([C@@H](C)CO)C(=O)c2cc(NC(=O)CCC(F)(F)F)ccc2O[C@@H]1CN(C)Cc1ccc(Cl)c(Cl)c1
    -0.3 | -0.2
> C[C@@H]1CN([C@@H](C)CO)C(=O)c2cc(NC(=O)CCN3CCOCC3)ccc2O[C@@H]1CN(C)CC1CC1
    3.6 | 0.9
> Cc1ccc2c(cnn2C(=O)CCCC(=O)O)c1
    -2.6 | -7.4
> COc1cc(C(=O)N=C2C(C)=CC(=O)C=C2C)cc(OC)c1OC
    -3.6 | -1.0
> C[C@H](CO)N1C[C@H](C)[C@H](CN(C)C(=O)Nc2ccccc2)Oc2ccc(NC(=O)CCCN(C)C)cc2C1=O
    1.0 | 0.6
> C[C@H]1CN([C@@H](C)CO)C(=O)c2cc(NC(=O)Nc3ccccc3)ccc2O[C@@H]1CN(C)S(=O)(=O)c1ccc(F)cc1
    2.2 | 1.9
> CC(C)NC(=O)N(C)C[C@H]1Oc2c(NC(=O)c3ccncc3)cccc2C(=O)N([C@@H](C)CO)C[C@H]1C
    7.2 | x
> CC1CCC(C(C)C)C(NC(=S)Nc2cccc(F)c2)C1 (stereo not given)
    1.0 | -1.4
> CCCc1cc(NCCc2ccccc2)n2c(nc3ccccc32)c1C#N
    5.8 | -0.7
> COc1ccc(CN(C)C[C@@H]2Oc3ccc(NS(=O)(=O)c4cccs4)cc3C(=O)N([C@H](C)CO)C[C@H]2C)cc1
    -1.5 | -0.7
> C[C@H]1CN([C@@H](C)CO)C(=O)c2cc(NC(=O)Nc3cccc4ccccc34)ccc2O[C@H]1CN(C)C(=O)Nc1ccccc1
    4.9 | 0.1
> CC(C)NC(=O)Cn1nc(Cc2ccncc2)c2ccccc2c1=O
    -4.0 | 0.1
> Cc1ccc(S(=O)(=O)N(C)C[C@H]2Oc3c(NC(=O)C4CCCCC4)cccc3C(=O)N([C@H](C)CO)C[C@@H]2C)cc1
    7.6 | x
> C=C(C)[C@@]12O[C@@H]1[C@@]1(C)C(=CC2=O)CC[C@@H](O)[C@@H]1C
    14.1 | -0.3
> O=C(Nc1ccccc1SCC(O)Cn1ccc2ccccc21)c1ccc(Cl)cc1 (stereo not given)
    -5.0 | x
> CCc1cccc(NC(=O)c2cc3cc4ccc(C)cc4nc3s2)c1
    5.0 | x
> C[C@H](CO)N1C[C@H](C)[C@H](CN(C)Cc2ccccc2)Oc2ccc(NC(=O)c3ccncc3)cc2C1=O
    -2.1 | 0.7
> c1ccc(-c2nn3c(-c4ccccc4)nnc3s2)cc1
    -3.4 | x
> C[C@H]1CN([C@@H](C)CO)C(=O)c2cc(NC(=O)CCN3CCOCC3)ccc2O[C@@H]1CN(C)Cc1ccc(Oc2ccccc2)cc1
    -2.9 | -0.6
> C[C@@H]1CN([C@@H](C)CO)C(=O)c2cc(NC(=O)c3ccncc3)ccc2O[C@H]1CN(C)S(=O)(=O)c1ccccc1
    1.9 | 0.6
> C[C@H](CO)N1C[C@H](C)[C@@H](CN(C)Cc2ccc(C(F)(F)F)cc2)Oc2c(NC(=O)Nc3ccc4c(c3)OCO4)cccc2C1=O
    -1.4 | x
> Cc1noc(C)c1NC(=O)N(C)C[C@H]1Oc2c(NC(=O)C3CCCCC3)cccc2C(=O)N([C@@H](C)CO)C[C@@H]1C
    -2.7 | x
> C=CCn1c(SCc2ccc(Cl)cc2)nc2cc(C(=O)NCc3ccco3)ccc2c1=O
    0.9 | -0.9
> C[C@@H]1CN([C@@H](C)CO)C(=O)c2cc(NC(=O)Cn3cnnn3)ccc2O[C@H]1CN(C)Cc1ccc2c(c1)OCO2
    -2.5 | 0.9
> C[C@@H]1CN([C@H](C)CO)C(=O)c2cc(NS(=O)(=O)c3ccc(Cl)cc3)ccc2O[C@@H]1CN(C)S(=O)(=O)c1ccccc1
    3.9 | 0.5
> COc1ccc(CN(C)C[C@@H]2Oc3ccc(NC(=O)Cn4cnnn4)cc3C(=O)N([C@H](C)CO)C[C@H]2C)cc1
    3.2 | 0.1
> C[C@@H]1CN([C@@H](C)CO)C(=O)c2cccc(NC(=O)c3ccncc3)c2O[C@@H]1CN(C)S(=O)(=O)c1cn(C)cn1
    4.8 | x
> COc1ccccc1NC(=S)N(Cc1ccccc1)Cc1cccn1Cc1ccc(F)cc1Cl
    -0.5 | 1.1
> C[C@H]1CN([C@@H](C)CO)C(=O)c2cccc(NS(=O)(=O)c3ccc(F)cc3)c2O[C@H]1CN(C)CC1CC1
    1.5 | x
> Cc1ccc(S(=O)(=O)N2Cc3ccccc3C2)cc1
    0.3 | 0.6
> CCC(CC)NC(=O)Cc1ccccc1OC
    -0.7 | 0.8
> Cc1ccc(CNC(=O)c2nc3c(nnn3Cc3ccco3)c(=O)[nH]2)cc1
    5.2 | x
> C[C@H](CO)N1C[C@H](C)[C@H](CN(C)CC2CCCCC2)Oc2ccc(NC(=O)Cc3cn(C)c4ccccc34)cc2C1=O
    0.8 | -0.3
> O=C1CCc2c(ccc3ccccc23)O1
    -0.3 | -0.7
> C[C@H]1CN([C@@H](C)CO)C(=O)c2cccc(NC(=O)C3CCOCC3)c2O[C@@H]1CN(C)S(=O)(=O)c1cccs1
    4.1 | x
> O=C(CSc1nc2c(sc3ccccc32)c(=O)n1Cc1ccccc1)NCCC1=CCCCC1
    -2.8 | 0.2
> CCCCN1Cc2c(n(CC(=O)c3ccc(OC)cc3)c3cc(-c4ccccc4)nn3c2=O)C1=O
    -3.2 | 0.1
> C[C@@H]1CN([C@@H](C)CO)C(=O)c2cccc(NC(=O)c3cnccn3)c2O[C@H]1CN(C)C(=O)Nc1ccc(F)cc1
    -6.8 | x
> CC1CCN(C(=O)c2ccc3c(c2)C(=O)N(CCC2=CCCCC2)C3=O)CC1
    -3.3 | 0.5
> C[C@@H]1CN([C@H](C)CO)C(=O)c2cccc(NS(C)(=O)=O)c2O[C@@H]1CN(C)C(=O)Nc1ccccc1
    4.6 | x
> CC(C)NC(=O)N(C)C[C@@H]1Oc2ccc(NC(=O)Nc3cccc4ccccc34)cc2C(=O)N([C@@H](C)CO)C[C@@H]1C
    -1.5 | 1.4
> O=C1CSC(=Nc2ccccc2)N1Cc1ccccc1
    3.6 | 0.2
> CCC(C(N)=O)c1ccccc1 (stereo not given)
    4.7 | 0.7
> C[C@H]1CN([C@@H](C)CO)C(=O)c2cc(NC(=O)Nc3ccc(C(F)(F)F)cc3)ccc2O[C@H]1CN(C)Cc1ccc(Cl)c(Cl)c1
    -4.5 | 0.5
> COc1ccc(-c2nnc3ccc(SCC(N)=O)nn23)cc1
    3.4 | 1.4
> C[C@@H]1CN([C@@H](C)CO)C(=O)c2cccc(NC(=O)C3CC3)c2O[C@@H]1CN(C)C
    4.1 | x
> Cc1ccc(S(=O)(=O)N(C)C[C@H]2Oc3ccc(NS(=O)(=O)c4ccccc4)cc3C(=O)N([C@@H](C)CO)C[C@H]2C)cc1
    1.3 | -1.0
> C/C(=C\C=C\C(C)C)CCC/C(C)=C/COc1c(O)cc2c(c1O)CNC2=O
    1.3 | -0.4
> COC(=O)c1ccc(-c2ccco2)n1CC(=O)NC1CCCC1
    -2.8 | 0.5
> COc1ccc(S(=O)(=O)Nc2ccc3c(c2)C(=O)N([C@H](C)CO)C[C@@H](C)[C@H](CN(C)C(=O)Nc2ccc4c(c2)OCO4)O3)cc1
    -4.1 | 0.1
> COc1ccc(NC(=O)Nc2ccc3c(c2)C(=O)N([C@@H](C)CO)C[C@@H](C)[C@H](CN(C)Cc2ccc(-c4ccccc4)cc2)O3)cc1
    6.0 | -0.4
> C[C@@H]1CN([C@H](C)CO)C(=O)c2cc(N(C)C)ccc2O[C@@H]1CN(C)Cc1ccc(Cl)c(Cl)c1
    -3.3 | -0.1
> O=C1NC(=Nc2ccccc2)S/C1=C/c1cccs1
    -1.1 | -4.0

# (cont.)
# The line under a structure holds: BJeLR viab HTS | A1 inhib
> C[C@H](CO)N1C[C@H](C)[C@@H](CN(C)Cc2ccccc2)Oc2c(NC(=O)c3cnccn3)cccc2C1=O
    0.4 | x
> Cc1cccn2cc(CCNC(=O)CC3CCCCC3)nc12
    1.2 | 0.3
> C[C@@H]1CN([C@@H](C)CO)C(=O)c2cccc(NC(=O)Nc3ccc4c(c3)OCO4)c2O[C@H]1CN(C)C
    -3.9 | x
> CNC[C@H]1Oc2c(NS(=O)(=O)c3ccccc3)cccc2C(=O)N([C@@H](C)CO)C[C@@H]1C
    -0.7 | x
> C[C@H](CO)N1C[C@H](C)[C@@H](CN(C)Cc2ccc(Oc3ccccc3)cc2)Oc2ccc(NS(C)(=O)=O)cc2C1=O
    0.2 | -1.2
> C[C@H](CO)N1C[C@H](C)[C@@H](CN(C)C)Oc2ccc(NC(=O)CCCCCC(=O)Nc3ccccc3N)cc2C1=O
    -2.6 | x
> Cc1noc(C)c1NC(=O)Nc1ccc2c(c1)C(=O)N([C@@H](C)CO)C[C@@H](C)[C@H](CN(C)C(=O)Nc1cccc3ccccc13)O2
    3.1 | 1.1
> CCOC(=O)C1CN(Cc2ccccc2)C(=O)C1=O (stereo not given)
    -2.0 | 0.7
> CCC(C)CC(C)/C=C\C1OC2=C(C(=O)OC2(C)O)C(O)C1O (stereo not given)
    104.0* | 7.7
> CNC[C@@H]1Oc2ccc(NC(=O)Cc3cn(C)c4ccccc34)cc2C(=O)N([C@H](C)CO)C[C@@H]1C
    -8.2 | 1.0
> Cc1noc(C)c1NC(=O)N(C)C[C@@H]1Oc2ccc(NC(=O)c3ccncc3)cc2C(=O)N([C@H](C)CO)C[C@@H]1C
    -3.8 | -0.5
> O=C(CN1CCN(Cc2ccccc2)C1=O)NCCc1ccccc1
    0.8 | x
> COc1ccc2oc(=O)c(-c3cnc(C)s3)cc2c1
    12.5 | -6.9
> Cc1ccc(S(=O)Cc2ccc(C(=O)N3CCN(C(=O)c4ccco4)CC3)o2)cc1 (stereo not given)
    -6.1 | 1.0
> COc1ccc(CN(C)C[C@H]2Oc3ccc(NC(=O)Cc4cn(C)c5ccccc45)cc3C(=O)N([C@@H](C)CO)C[C@@H]2C)cc1
    0.4 | 0.6
> COc1ccc(-c2nnc3n(Cc4ccccc4)c(=O)c4ccccc4n23)cc1
    0.6 | 0.2
> Cc1ccc(S(=O)(=O)Nc2ccc3c(c2)C(=O)N([C@@H](C)CO)C[C@H](C)[C@H](CN(C)S(C)(=O)=O)O3)cc1
    0.4 | -0.3
> CCOc1ccc(OCc2ccc(C(=O)NN)o2)cc1
    -1.7 | x
> C/C=C(\C)C(=O)OC1CCC(=O)OC1/C=C/C(O)C(C)O (stereo not given)
    0.0 | 0.1
> C[C@H](CO)N1C[C@H](C)[C@H](CN(C)S(=O)(=O)c2ccc(F)cc2)Oc2ccc(NS(=O)(=O)c3ccccc3)cc2C1=O
    -2.6 | 1.9

# 5 entries out of the list, ordered by SMILES length, low to high:
# The line under a structure holds: BJeLR viab HTS | A1 inhib
> CCOC(=O)C1CN(Cc2ccccc2)C(=O)C1=O (stereo not given)
    -2.0 | 0.7
> C[C@H](CO)N1C[C@H](C)[C@@H](CN(C)Cc2ccccc2)Oc2c(NC(=O)c3cnccn3)cccc2C1=O
    0.4 | x
> C[C@@H]1CN([C@@H](C)CO)C(=O)c2cccc(NC(=O)Nc3ccc4c(c3)OCO4)c2O[C@H]1CN(C)C
    -3.9 | x
> COc1ccc(CN(C)C[C@H]2Oc3ccc(NC(=O)Cc4cn(C)c5ccccc45)cc3C(=O)N([C@@H](C)CO)C[C@@H]2C)cc1
    0.4 | 0.6
> Cc1noc(C)c1NC(=O)Nc1ccc2c(c1)C(=O)N([C@@H](C)CO)C[C@@H](C)[C@H](CN(C)C(=O)Nc1cccc3ccccc13)O2
    3.1 | 1.1

# Remaining list, next part.
# The line under a structure holds: BJeLR viab HTS | A1 inhib
> C[C@H]1CN([C@@H](C)CO)C(=O)c2cccc(NS(C)(=O)=O)c2O[C@@H]1CN(C)C(=O)Nc1ccc2c(c1)OCO2
    -2.6 | x
> COc1ccc(S(=O)(=O)Nc2ccc3c(c2)C(=O)N([C@H](C)CO)C[C@H](C)[C@@H](CN(C)Cc2ccc(-c4ccccc4)cc2)O3)cc1
    0.7 | 0.4
> N#Cc1nc(-c2ccccc2)oc1N1CCCCC1
    -0.1 | 1.5
> Cc1cc(C(=O)Nc2cccc3c2O[C@@H](CN(C)C(=O)NC2CCCCC2)[C@@H](C)CN([C@H](C)CO)C3=O)n(C)n1
    -4.2 | x
> COc1cccc(OCCNC(=O)c2cccc3ccccc23)c1
    -4.5 | 0.8
> S=C(NCCCN1CCOCC1)N(Cc1ccccc1)Cc1ccccc1
    8.7 | 0.6
> Cc1nc(N=C(N)N)nc2ccccc12
    7.4 | 0.0
> CC1=CC(=O)OC(c2ccccc2)C1 (stereo not given)
    0.3 | 0.0
> CC(C)CCNC(=O)c1cc2c(=O)oc3ccccc3c2s1
    -4.3 | x
> COc1ccc(NC(=O)Nc2cccc3c2O[C@H](CN(C)Cc2ccc(C(F)(F)F)cc2)[C@@H](C)CN([C@H](C)CO)C3=O)cc1
    0.7 | x

# Only part of the results is shown, so the mix of outcomes need not match the whole.
